B2AR ag: human beta-2 adrenergic receptor agonism by FAP; P07550; Am2.2-beta2AR cells, FAP receptor internalization, flow cytometry; reference of the scale not given here; response, % (test concentration not listed); 340,000 tested, 0.43% active;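 active means response above a set limit, near 3 SD of response in nonfluorescent compounds, cut at about 42% in these data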;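 further: stock transfer was 100 nL into about 11 µL; a reference agonist was the positive control; negative values mostly stem from fluorescent compounds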
Target sequence (P07550 whole entry, looked up): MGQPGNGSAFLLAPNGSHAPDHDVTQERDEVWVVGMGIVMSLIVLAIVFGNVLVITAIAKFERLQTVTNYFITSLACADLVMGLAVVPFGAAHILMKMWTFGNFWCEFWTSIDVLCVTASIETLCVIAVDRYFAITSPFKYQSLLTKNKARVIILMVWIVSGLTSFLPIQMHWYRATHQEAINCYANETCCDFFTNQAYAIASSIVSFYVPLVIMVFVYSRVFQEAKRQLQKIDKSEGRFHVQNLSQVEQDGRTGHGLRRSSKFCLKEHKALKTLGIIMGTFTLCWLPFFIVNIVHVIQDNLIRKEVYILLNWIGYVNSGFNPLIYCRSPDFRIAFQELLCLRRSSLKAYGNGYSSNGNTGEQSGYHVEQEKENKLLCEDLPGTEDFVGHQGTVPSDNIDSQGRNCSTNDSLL
Beta apoptosis: beta cell apoptosis inhibition | INS-1E cytokine-induced death, ATP luminescence, 48 h; percent of positive-control rescue, neutral wells zero | protection from apoptosis, % (test concentration not listed) | 300,000 tested, 0.8% active;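 active means all replicates at 75% or more, or half of them and the mean; inconclusive means half reach 75% but not the mean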;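 further: 0% = cytokine-treated negative control wells and 100% = positive control rescue; higher means more ATP so stronger rescue from cytokine killing; wells of about 40 µL received 100 nL stock; the first replicate is given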
T cruzi inh: T. cruzi replication inhibition; 300,000 tested, 1.4% active; AID 1885; inhibition, % (concentration not given with the values); T. cruzi beta-gal in NIH3T3, luminescence, 90 h;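 active means mean inhibition across valid replicates above about 55%, limit read from the data; inconclusive means mean below that limit but half or more replicates reach it; inactive means mean below it, under half of replicates reach it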;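 further: signal also drops with host cell toxicity which is not excluded here; 0% = plate median of DMSO wells and 100% = zero luminescence signal; higher percent means less beta-gal luminescence so fewer parasites; stock transfer was 50 nL into about 50 µL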
RanGTP-Impb inh: disruptors of Ran-importin-beta complex formation – biochemical, FRET, CFP-Ran, YFP-importin-beta, homogeneous, primary screen | cell-free CFP-Ran/YFP-importin-beta FRET ratio | inhibition, % (concentration not given with the values) | 300,000 tested, 1.1% active | AID 2216;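 active means most replicates above 15%; inconclusive means exactly half above 15%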;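 further: 0% = DMSO wells and 100% = Ran loaded with GDP instead of GTP; wells of about 40 µL received 100 nL stock; the first replicate is given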
UCH37 inh: human UCH37 deubiquitinating enzyme inhibition; 330,000 tested, 0.33% active; inhibition, % (test concentration not listed); AID 588478; purified proteasome/UCH37, Ub-AMC cleavage fluorescence;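 active means mean of two replicates above 20%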;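 further: 0% = compound-free wells with enzyme and 100% = wells lacking proteasome; stock transfer was 100 nL into about 20 µL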
Target sequence (Q9Y5K5 whole entry, looked up): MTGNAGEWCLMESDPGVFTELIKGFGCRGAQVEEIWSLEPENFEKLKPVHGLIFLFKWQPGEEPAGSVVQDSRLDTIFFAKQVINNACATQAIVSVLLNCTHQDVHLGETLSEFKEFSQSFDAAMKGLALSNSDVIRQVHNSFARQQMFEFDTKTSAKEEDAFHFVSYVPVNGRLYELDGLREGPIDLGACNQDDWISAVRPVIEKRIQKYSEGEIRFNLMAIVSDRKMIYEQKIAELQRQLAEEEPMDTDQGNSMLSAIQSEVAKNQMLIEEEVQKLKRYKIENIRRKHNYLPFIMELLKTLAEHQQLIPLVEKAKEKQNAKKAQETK
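Material: human UCH37 enzyme supplied as purified proteasome complex / Amount: 0.15 nM proteasome as dispensed / Buffer or medium: pH 7.4 Tris-HCl (50 mM) with ovalbumin, ATP-MgCl2, DTT / Times: preincubation 30 min, reaction 25 min, room temperature / Technique: AMC fluorescence from Ub-AMC cleavage, excitation 355 nm, emission 460 nm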
A1 inh: inhibitors of the anti-apoptotic protein A1, read as caspase activation. 330,000 tested, 0.066% active. MEF A1-2A-BIM cells, Caspase-Glo 3/7 luminescence, 3 h; percent of clofoctol response, vehicle zero. caspase activation, % (concentration not given with the values);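 active means over half of replicate activation scores above 10%, or exactly half above 10 with the replicate mean above 10; inconclusive means replicate mean below 10 yet half the replicates above 10; inactive means over half of replicates below 10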;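 further: wells of about 30 µL received 50 nL stock; many hits fall short of the cut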
LANA-H2B inh: blocks KSHV LANA binding to histone H2A/H2B. 320,000 tested, 0.6% active. Q9QR71. cell-free LANA-H2A/H2B peptide, fluorescence polarization. inhibition, % (test concentration not listed); in the data active means inhibition mostly above about 10%, no sharp cut-off; inactive means mostly below about 6.7%;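 further: stock transfer was 7.5 nL into about 10 µL; 0% = median of vehicle wells and 100% = median of positive control wells; one replicate is shown; the record names a cut of 25% in any replicate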
Calb FLC: affects C. albicans growth with fluconazole | C. albicans CaCi-2 (fluconazole-resistant clinical isolate) + fluconazole, Alamar Blue growth, 48 h | growth inhibition, % (concentration not given with the values) | 300,000 tested, 0.57% active;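 active means most replicates above 75%; inconclusive means exactly half above 75%; inactive means most below 75%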;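 further: all wells also contain fluconazole at 8 µg/ml as a sub-toxic cotreatment; 0% = median of DMSO wells and 100% = median of geldanamycin control wells; wells of about 8 µL received 7.5 nL stock; the first replicate is given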
The depositor's hits bear a star; ? = inconclusive; · = no result given; & = joins results of further samples.

SMILES | B2AR ag | Beta apoptosis | T cruzi inh | RanGTP-Impb inh | UCH37 inh | A1 inh | LANA-H2B inh | Calb FLC
COc1ccccc1CNC(=O)COc1cccnc1[N+](=O)[O-] | -4 | · | 8 | ? | 1.4 | -0.7 | -3.2 | 0
CCOC(=O)c1sc2nc3c(SCCC(=O)O)cc(C(=O)c4cc(OC)ccc4O)cn3c(=O)c2c1C | -8 | · | 5 | 1.4 | 5.8 | · | · | 12
CCn1ncc(CN2CCN(C(=O)Nc3ccccc3C(=O)OC)CC2)c1C | -2 | -3 | 9 | -4.0 | -1.0 | 0.2 | 5.6 | 23
COc1ccc(CS(=O)(=O)CC(C)(O)c2ccccc2)cc1 (stereo unspecified) | -11 | -11 | -23 | -1.4 | -0.7 | 1.6 | -0.6 | 3
O=C(Nc1ccc(Oc2ccccc2)nc1)C1CCCCN1Cc1cccc(OCCO)c1 (stereo unspecified) | -3 | 1 | 6 | 0.1 | 1.6 | -0.6 | -5.9 | -5
Cc1ccc(Sc2c([N+](=O)[O-])ncn2C)cc1 | 2 | -18 | 17 | ? | 7.9 | -1.0 | 3.5 | 28
N#Cc1ccc(-c2ccc(OCC(=O)NCCc3ccccc3)cc2)cc1 | 0 | -6 | -5 | -0.9 | 1.0 | -0.5 | 3.5 | -22
O=C(Cn1cc(CCO)nn1)N1CCNCC1 | 5 | -4 | 5 | -1.3 | 5.2 | -0.2 | -0.1 | -8
Nc1cc(N2CCCC2)ccc1[N+](=O)[O-] | -7 | -1 | -1 | -0.9 | 7.7 | 1.2 | -0.5 | 6
c1ccc2[nH]c(-c3ccnc4ccccc34)nc2c1 | -4&-4 | 6&-3 | -3&-16 | -2.9&-1.8 | -130&-38 | -1.2&-0.5 | -5.1&1.9 | 3&-52
Cc1ccc(C(=O)/C=C\NCc2ccccc2)cc1 | 15 | · | 10 | -0.8 | · | -1.7 | -0.7 | 7
CCOc1ccc(NC(=O)c2cccs2)c([N+](=O)[O-])c1 | -9 | -3 | 7 | 19 | 9.2 | -1.7 | -3.2 | -1
CN(C)c1nc(-c2cccnc2)nc(-c2ccccc2)c1C#N | 1 | 3 | 7 | 0.5 | -51 | 0.4 | 3.1 | -2
COc1ccc(-c2nc(N)nc(C(F)(F)F)c2-c2csc(C)n2)c(O)c1 | 2 | -4 | ? | 6.0 | 5.4 | 0.2 | -2.3 | 3
CCOC(=O)N1CCC(NC(=O)C(NS(=O)(=O)c2ccc3c(c2)CCN3C(C)=O)C(C)C)CC1 (stereo unspecified) | -10 | 4 | -2 | -3.9 | 0.8 | 0.0 | 3.9 | -5
CCOC(=O)c1c(C)[nH]c(C(=O)COC(=O)/C=C/c2ccc3c(c2)OCO3)c1C | 53* | -5 | -2 | 0.1 | 3.4 | 0.9 | -4.2 | -7
Cn1c(SCC(=O)NNC(=O)c2ccccc2)nnc1C1CC1 | 0 | -15 | -6 | -1.9 | 4.3 | 1.3 | 1.9 | 7
CCC(CO)NCc1ccc(-c2ccccc2)cc1 (stereo unspecified) | -3 | 11 | 30 | -2.1 | 5.3 | 0.7 | -2.8 | 0
CCCSc1nsc(SCCC)c1C#N | -2 | -3 | -11 | -0.2 | -1.4 | 0.2 | 0.3 | -3
CCOC(=O)c1sc(=NC(=O)COc2ccc(Cl)cc2)n(C)c1C | 4 | 3 | 13 | 1.0 | -4.1 | -1.2 | -2.0 | -4
COc1ccccc1-c1cc(C(=O)N/N=C/c2ccc(C)o2)c2ccccc2n1 | -5 | · | -1 | 6.3 | · | · | · | -13
CCc1ccc(-c2csc3ncn(CC)c(=O)c23)cc1 | -3 | 0 | -21 | 0.2 | 3.4 | 1.0 | -2.0 | 13
CCCCNC(=O)c1cc(-c2ccc3c(c2)OCO3)on1 | 3 | -11 | -8 | 0.4 | -0.6 | -1.8 | 2.0 | -11
CC1CCc2nc(NC(=O)Cc3cccs3)sc2C1 (stereo unspecified) | 5 | 0 | -9 | -1.6 | 2.7 | 0.1 | -0.3 | -24
COC(=O)C(Cc1cncn1COCc1ccccc1)NC(=O)OC(C)(C)C (stereo unspecified) | 15 | -5 | -1 | 2.6 | 2.5 | 0.6 | -3.7 | -6

Entries of single compounds as entered above:
Entry for CN(C)c1nc(-c2cccnc2)nc(-c2ccccc2)c1C#N : B2AR ag = 1; Beta apoptosis = 3; T cruzi inh = 7; RanGTP-Impb inh = 0.5; UCH37 inh = -51; A1 inh = 0.4; LANA-H2B inh = 3.1; Calb FLC = -2
Entry for COc1ccccc1-c1cc(C(=O)N/N=C/c2ccc(C)o2)c2ccccc2n1 : B2AR ag = -5; Beta apoptosis = ·; T cruzi inh = -1; RanGTP-Impb inh = 6.3; UCH37 inh = ·; A1 inh = ·; LANA-H2B inh = ·; Calb FLC = -13
Entry for O=C(Nc1ccc(Oc2ccccc2)nc1)C1CCCCN1Cc1cccc(OCCO)c1 (stereo unspecified) : B2AR ag = -3; Beta apoptosis = 1; T cruzi inh = 6; RanGTP-Impb inh = 0.1; UCH37 inh = 1.6; A1 inh = -0.6; LANA-H2B inh = -5.9; Calb FLC = -5

The list continues.
SMILES | B2AR ag | Beta apoptosis | T cruzi inh | RanGTP-Impb inh | UCH37 inh | A1 inh | LANA-H2B inh | Calb FLC
COCc1cc(C)[nH]c(=O)c1C#N | -10 | -2 | -4 | 1.4 | -149 | 0.1 | -0.7 | 6
O=C(CSc1nnc2ccc(-c3ccccn3)nn12)NCCc1ccccc1 | 5 | · | -10 | -2.1 | 0.1 | -0.3 | -7.6 | 4
Cc1ccc(CSCC(=O)N2CCCC2)cc1 | 1 | 3 | -7 | -2.6 | 0.0 | -0.3 | 3.7 | 0
CCOc1ccc(NC(=O)CCNC(=O)c2ccco2)cc1 | -7 | 0 | 7 | 0.7 | -0.1 | 0.6 | -1.8 | -4
OC1C[N+]2(CCCCC2)C1 | 5 | -3 | -12 | -4.0 | 3.2 | 1.4 | 11 | -8
Cn1nc(-c2ccccc2)c(CO)c1Oc1cccc(C(F)(F)F)c1 | 3 | -9 | 4 | 1.8 | 1.5 | 0.1 | -2.0 | 2
CC(OC(=O)CCc1nc2ccccc2c(=O)[nH]1)C(=O)Nc1cccc(C(F)(F)F)c1 (stereo unspecified) | -6 | 0 | · | · | 5.9 | 3.0 | 3.0 | ·
COc1cccc(CN2CCN(Cc3ccc(C)o3)CC2CCO)c1 (stereo unspecified) | 6 | 3 | 1 | -2.4 | 0.5 | 1.6 | -3.8 | 1
COC(=O)c1cc(=O)c2c(C)nc(C(Cl)(Cl)Cl)nc2[nH]1 | -6 | · | -20 | -7.2 | 4.4 | -0.5 | 2.0 | 4
CC1(C)CC(=O)C=C(NCCCN2CCCC2=O)C1 | -2 | 4 | -21 | -2.5 | -1.3 | 0.7 | -2.8 | 23
COc1ccc(N(C(=O)Cc2cccs2)C(C(=O)NC2CCCCC2)c2cccn2C)cc1OC (stereo unspecified) | 0 | 1 | 12 | 0.3 | 1.1 | 0.8 | 0.3 | -7
CCCCN(CC)CCCNC(=O)CS(=O)(=O)Cc1nc(-c2cccc(OC)c2)oc1C | -3 | -6 | 10 | 1.2 | 5.9 | -0.4 | 0.5 | -9
Cc1ccc(NC(=O)COC(=O)COc2cccc3c2OC(C)(C)C3)cc1S(=O)(=O)N1CCOCC1 | -2 | 0 | 1 | -7.7 | 1.9 | -1.0 | 3.4 | -1
CCCCSc1nnc(-c2c[nH]c3ccccc23)n1C | 0 | 0 | -5 | 2.1 | 1.6 | 0.2 | 2.3 | -8
CC1Cc2ccccc2N1C(=O)C12CCC(C)(C(=O)C1)C2(C)C (stereo unspecified) | 3 | 7 | 14 | -4.0 | 0.6 | 1.0 | -2.1 | -5
O=C(NCCO)c1nc(NCCO)c2ccccc2n1 | -10 | -2 | -14 | -0.8 | 1.6 | -0.3 | 2.2 | -12
O=C1c2cccc([N+](=O)[O-])c2C(=O)N1c1ccccc1 | 3 | 14 | -10 | -3.1 | 0.1 | -1.0 | -0.9 | 6
COc1cccc(OCC(O)CN2CCc3ccccc3C2)c1 (stereo unspecified) | 8 | · | -6 | 2.1 | 0.0 | 1.2 | -4.0 | 1
Cc1cccnc1NC(=O)c1sc2ccccc2c1Cl | -9 | -9 | -14 | 1.3 | 3.2 | -0.7 | 1.6 | 3
O=C(Nc1ccc(Cl)cc1F)c1cc(S(=O)(=O)N2CCCCC2)ccc1F | 11 | -7 | -5 | 2.0 | -0.5 | -0.6 | -0.3 | 15
COc1ccccc1-c1nn(Cc2ccccc2)cc1C(=O)NCC(c1ccco1)N1CCCC1 (stereo unspecified) | 6 | 6 | · | · | 3.7 | -0.3 | -1.8 | ·
Cn1c(N)c(C#N)c2c(c1=S)CSC(C)(C)C2 | -2 | -4 | -11 | -1.4 | 5.8 | -0.7 | 5.6 | 11
CCOC(=O)Cn1c(=O)oc2ccc(C)cc21 | 2 | 2 | 4 | 0.4 | 0.6 | -1.2 | 0.4 | 24
CCOC(=O)N1CCN(C(=O)c2ccc3c(=O)n(CCc4ccc(OC)c(OC)c4)c(=O)[nH]c3c2)CC1 | 22 | 7 | -10 | 1.6 | 1.2 | 0.8 | -0.5 | -19
NS(=O)(=O)c1ccc(CCNc2nc(CN3CCCCC3)nc3sc4c(c23)CCC4)cc1 | 4 | -3 | 12 | -1.8 | -4.1 | -0.3 | -4.4 | 5
(listing goes on)
SMILES | B2AR ag | Beta apoptosis | T cruzi inh | RanGTP-Impb inh | UCH37 inh | A1 inh | LANA-H2B inh | Calb FLC
CCOC(=O)[C@@H]1[C@H]2COc3cc(OC)ccc3[C@@H]2N2C(=O)N(c3ccc(Cl)cc3)C(=O)[C@]12C | 3 | · | 20 | -4.5 | 5.3 | 0.9 | 6.9 | 16
CC(NC(=O)c1ccccc1Br)c1nnc(SCC(=O)NC2CCCCC2)n1C (stereo unspecified) | 15 | -6 | 10 | 1.9 | 0.0 | 0.4 | 1.1 | 17
CN1C(=O)N(CC(=O)Nc2sccc2C(N)=O)C(=O)C12CCCCC2 | -6 | -1 | · | · | 4.7 | -1.2 | 3.3 | ·
Cc1ccc(S(=O)(=O)NCCC(=O)NCC(c2cccs2)N(C)C)cc1 (stereo unspecified) | -3 | -10 | · | · | -2.0 | -0.4 | -1.8 | ·
Cc1ccccc1C1c2[nH]c3ccccc3c2C[C@H]2C(=O)N(c3ccccc3C(=O)NCCCN3CCOCC3)C(=O)N12 (stereo partly specified) | 6 | · | 30 | 4.7 | -2.3 | 1.5 | 2.1 | 14
CCOC(=O)[C@@H]1[C@H]2COc3ccc(Br)cc3[C@@H]2N2C(=O)N(c3ccc(OC)cc3)C(=O)[C@@]12C | -2 | 4 | · | · | 3.1 | -0.8 | 2.7 | ·
O=C(COc1ccc(S(=O)(=O)NC2CCCCC2)cc1Cl)NCc1ccc2c(c1)OCO2 | 6 | 5 | 4 | 5.5 | 4.4 | -0.3 | -1.5 | -7

3 entries out of the list above, arranged by their value in B2AR ag, ascending:
structure,B2AR ag
CN1C(=O)N(CC(=O)Nc2sccc2C(N)=O)C(=O)C12CCCCC2,-6
COc1ccccc1CNC(=O)COc1cccnc1[N+](=O)[O-],-4
Cn1nc(-c2ccccc2)c(CO)c1Oc1cccc(C(F)(F)F)c1,3
